MT1-MMP promoter: inhibitors of MT1-MMP promoter transcription, cell-based, luciferase reporter, luminescence (AID 618) | calls from a first round at 10 µM; hits with a dose series show EC50 in µM | 0.62% of 87,000 active | MT1-MMP promoter luciferase reporter cells, luminescence;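 active = over half of the reporter light lost at 10 µM or EC50 under 50 µM; inactive = the rest and hits that failed the dose series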;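 note: actives suppress MT1-MMP promoter-driven transcription so potencies describe inhibitors; HT1080 fibrosarcoma cells; overnight exposure; toxic or luciferase-blocking compounds were not removed from the actives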
WNV protease inh: blocks West Nile virus NS2B-NS3 protease activity | WNV NS2B-NS3 protease, fluorogenic substrate Ex360/Em465; stronger effect = lower value | 0.18% of 65,000 active | z-score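 (tested at a level between 10 and 100 µM)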 | P06935;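 active = z-score at -3 or under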;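 note: score is relative to mean and spread of the compound wells of a plate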
Target sequence (P06935 1371-1501 limits assumed): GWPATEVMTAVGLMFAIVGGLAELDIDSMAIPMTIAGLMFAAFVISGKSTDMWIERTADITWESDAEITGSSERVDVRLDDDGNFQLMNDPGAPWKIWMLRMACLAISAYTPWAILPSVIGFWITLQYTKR
Target sequence (P06935 1502-1679 limits assumed): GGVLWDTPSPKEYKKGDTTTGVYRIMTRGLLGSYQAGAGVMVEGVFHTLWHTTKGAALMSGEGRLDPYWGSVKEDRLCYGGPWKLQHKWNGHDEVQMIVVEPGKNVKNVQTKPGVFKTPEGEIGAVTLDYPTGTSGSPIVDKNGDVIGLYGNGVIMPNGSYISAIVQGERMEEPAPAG
Hsc70 ATP site: small molecules displacing fluorescent ligand from Hsc70 – biochemical, fluorescence polarization, primary screen (AID 568) | displacement, % at 20 µM; hits with a dose series show IC50 in µM | 83,000 tested, under 10 active | Hsc70 fluorescence polarization, probe displacement; higher % means a stronger effect; strong numbers were not always called active;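 active = displacement above 50% without optical interference and an IC50 on retest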;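 note: ATPase domain with a fluorescein-tagged ATP probe; 0% = vehicle and 100% = excess ADP; read after one hour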
Active calls of the source: *; i = inactive; · = not tested or not shown; + = active, no number. Compounds as they come, and some 0.8% of all compounds hit somewhere here.

SMILES,WNV protease inh,Hsc70 ATP site,MT1-MMP promoter
O=C(CN1CCOCC1)N1CCc2ccccc2C(c2ccccc2)C1 (stereo not given),-1.2,0.2%,i
CCCOc1ccc(C2C(C(=O)c3ccc(C)o3)=C(O)C(=O)N2Cc2cccnc2)cc1 (stereo not given),-0.08,-3.0%,i
COc1ccccc1OCCSc1nnnn1-c1ccc(C)cc1,-0.08,3.5%,i
Cc1ccc(P(=O)(CC(=O)O)c2ccc(C)cc2)cc1,-0.06,-1.0%,i
Cc1c(NC(=O)C2CCN(S(=O)(=O)c3ccc(Cl)cc3)CC2)c(=O)n(-c2ccccc2)n1C,·,-5.4%,i
Cc1csc2c(=O)n3c(nc12)CCCCC3,-0.98,-2.0%,i
CC(C)C1C(C#N)=C(N)Oc2n[nH]c(-c3ccccc3)c21 (stereo not given),-0.36,-2.1%,i
COc1ccc2ccccc2c1CN1CCN(C(=O)c2ccccc2)CC1,-0.62,-7.3%,i
COc1ccc(NC(=O)NCc2ccccn2)cc1,·,0.3%,i
CCOc1ccc(NC(=O)CSc2nnnn2CC(=O)O)cc1,-0.64,-1.5%,i
CC(C)NC(=O)CN(CCc1ccccc1)S(C)(=O)=O,0.53,0.4%,i
Cc1c(/C(O)=C2/C(=O)C(=O)N(CCN3CCOCC3)C2c2cccs2)cnn1-c1ccccc1 (stereo not given),-0.08,3.6%,i

(list continues)
SMILES,WNV protease inh,Hsc70 ATP site,MT1-MMP promoter
COc1ccc(-c2cccc(C(=O)NCC(=O)O)c2)cc1,·,-0.9%,i
Clc1cccc(CSc2nnc(-c3ccccn3)n2Cc2ccco2)c1,0.08,-6.7%,i
COc1cccc(CC(NC(C)=O)C(=O)NC2CCN(c3nc(C)cc(C)c3C#N)CC2)c1OC (stereo not given),0.43,0.7%,i
COc1ccccc1N1CCN(C(=O)c2cc3cc(Br)ccc3oc2=O)CC1,-1.1,-0.6%,i
COc1ccc(Cl)cc1NC(=O)COC(=O)CCNC(C)=O,2,-2.9%,i
CN1CCN(Cn2cc(/C=C/C(=O)c3ccccc3)c3ccccc32)CC1,·,-20%,i
Cc1cc(Cl)c(S(=O)(=O)NCC2CCCO2)cc1OCC(=O)NC1CCCCC1 (stereo not given),·,-0.4%,i
COc1ccc(OC)c(S(=O)(=O)N2CCC(C(=O)NCCc3ccccc3)CC2)c1,·,0.2%,i
COC(=O)c1c(-c2cccs2)csc1NC(=O)c1cccnc1,-1.8,-4.3%,i
CC1=NN(c2cccc(Cl)c2)C(=O)C12CC(C)=C(C)CS2 (stereo not given),·,4.5%,i
COc1ccc(C(=O)Oc2ccc(C(C)=O)cc2)c(OC)c1,-0.26,-0.2%,i
c1ccc2sc(NC3=NCN(C4CCCCCC4)CN3)nc2c1,·,3.5%,i

Following part:
SMILES,WNV protease inh,Hsc70 ATP site,MT1-MMP promoter
Cc1cc(Cl)c(S(=O)(=O)Nc2ccccn2)cc1OCC(N)=O,1.8,-2.0%,i
CC(c1ccccn1)N(CCN(C)C)C(=S)Nc1cccc(F)c1 (stereo not given),·,2.6%,i
Cc1noc(C)c1S(=O)(=O)N1CCC(C(=O)NC2CCN(Cc3ccccc3)CC2)CC1,·,4.5%,i
O=C(NCCCN1CCN(c2ccccc2F)CC1)C1CCC(=O)N1C1CCCC1 (stereo not given),0.49,1.6%,i
CCOC(=O)C1CCN(S(=O)(=O)Cc2ccc(Cl)cc2)CC1,0.24,0.2%,i
CCCc1cc(C(=O)Nc2nnc(C)s2)cs1,-0.32,4.7%,i
N#CCCCSc1nnnn1-c1cccc(Cl)c1,0.8,3.0%,i
CCNC(=O)c1sc(=S)n(CC)c1N,0.36,-3.0%,i
COc1cccc(OCc2nnc(SC)n2C)c1,2,-5.6%,i
CC1CN(C(=O)c2cccc(S(=O)(=O)N3CCOCC3)c2)CC(C)O1 (stereo not given),-0.02,4.1%,i
CC(=NCCN1CCOCC1)C1=C(O)c2ccccc2C1=O,0.38,-1.7%,i
c1cc(-c2noc(CC3CCCCC3)n2)ccn1,0.33,-0.6%,i

The list continues:
SMILES,WNV protease inh,Hsc70 ATP site,MT1-MMP promoter
COCCCNC(=O)c1cccc(OC)c1OC,-0.37,-2.1%,i
COc1ccc(-c2cn3c(C)c(C(=O)NCCN4CCOCC4)sc3n2)cc1,-2.5,-3.2%,i
Cc1cc(C)n(-c2c(F)c(F)c(COC(=O)c3ccccc3)c(F)c2F)n1,·,-1.6%,i
Cc1ccc(-n2c(O)c(C=NC3CCS(=O)(=O)C3)c3ccccc3c2=O)cc1 (stereo not given),·,-0.1%,i
CN1C(=O)c2ccccc2N(C)C1c1ccc2c(c1)OCO2 (stereo not given),0.07,-4.4%,i
CC(C)CC(OC(=O)c1ccco1)C(=O)NCC1CCCO1 (stereo not given),-0.43,-6.2%,i
CCOc1ccccc1CN(CCc1ccc2c(c1)OCO2)Cc1ccccn1,-1.2,2.8%,i
CCCS(=O)(=O)N1CCC(C(=O)N2CCC(Cc3ccccc3)CC2)CC1,-0.16,-1.5%,i
N#CC1=C(N)NC(SCc2ccc(F)cc2)=C(C#N)C12CCCCC2,-0.96,-5.2%,i
COc1ccc(C(=O)Nc2ccc(S(=O)(=O)Nc3nccc(C)n3)cc2)cc1OC,·,-1.3%,i
O=C(Oc1ccc2c(c1)OCO2)c1cc2c(s1)CCC2,0.46,1.8%,i
COc1ccc(OC)c(NC(=O)c2cc(-c3ccc(C)cc3O)n[nH]2)c1,-0.61,4.1%,i

(list continues)
SMILES,WNV protease inh,Hsc70 ATP site,MT1-MMP promoter
O=CNc1ccccc1Oc1ccccc1,1.4,-1.8%,i
O=C(CSc1ncnc2sc3c(c12)CCCC3)c1ccco1,-0.93,-1.7%,i
COc1ccc(S(=O)(=O)N(Cc2ccccc2)Cc2nc(-c3ccccc3)no2)cc1,-0.34,-7.1%,i
CCC(=O)Nc1nnc(-c2ccc(OC)cc2)o1,-0.11,-1.6%,i
CCN(CC)c1ccc(-c2nn3c(-c4ccccc4OC)nnc3s2)cc1,-2.2,-5.9%,i
CC1(C)CC2CC(C)(CN2C(=O)c2cccs2)C1 (stereo not given),-1.6,3.9%,i
Cc1ccc(NC(=O)Cc2cn3ccsc3n2)nc1,-1.1,-1.9%,i
O=C(CN1C(=O)c2ccccc2S1(=O)=O)NCCSCc1ccco1,-0.11,8.8%,i
CCOC(=O)N1CCN(C(=O)c2ccc3nc4cc(Cl)ccc4c(=O)n3c2)CC1,0.42,0.2%,i
Cc1ccc2c(c1)N(CC(=O)NCCc1c[nH]c3ccccc13)C(=O)CO2,0.76,0.2%,i
Cc1ccc(C(=O)C(C(=O)/C=C/c2ccccc2)=C2SCCCS2)cc1,·,1.7%,i
CCOC(=O)c1[nH]c(C)c(C(=O)NCCCOC(C)C)c1C,-0.34,-10%,i

Carrying on.
SMILES,WNV protease inh,Hsc70 ATP site,MT1-MMP promoter
O=C(c1noc2c1CCc1ccccc1-2)N1CCCc2ccccc21,-0.42,1.4%,i
CCOC(=O)N1CCN(c2ccc(C(=O)c3ccccc3)cc2F)CC1,-0.45,-2.6%,i
Cc1cc(COc2ccccc2OCc2cc(C)no2)on1,-0.58,4.9%,i
CCSc1ccccc1C(=O)n1nnc2ccccc21,-0.73,-5.4%,i
CC1(c2ccccc2)NC(=O)N(CCOc2ccccc2)C1=O (stereo not given),-0.99,-2.2%,i
Cc1cccc(-c2nnc(SCc3cc(=O)[nH]c4ccccc34)n2C)c1,-0.18,-3.8%,i
COc1cccc(/C(O)=C2/C(=O)C(=O)N(Cc3cccnc3)C2c2ccco2)c1 (stereo not given),·,0.5%,i
Cc1c(C(=O)OC2CCCCC2)sc2nc[nH]c(=O)c12,-1.3,3.3%,i
Cn1c(=O)c2c(nc(N3CCCCCC3)n2CC(O)COc2ccc(Cl)cc2)n(C)c1=O (stereo not given),1.1,-0.7%,i
CCOc1ccc(CNc2ccc3c(c2)nc(C)n3C)cc1,-1.3,-2.9%,i
COC(=O)c1sc(NC(=O)CSc2nnnn2-c2ccc(C)cc2C)nc1C,-1.2,-3.2%,i
CCSC1(SCC)N=C(N)C2(C#N)C(c3ccccc3)NC(C)=C(C)C12C#N (stereo not given),-1.3,0.9%,i

(cont.)
SMILES,WNV protease inh,Hsc70 ATP site,MT1-MMP promoter
O=C(O)CCC(=O)N1CCC(C(=O)c2cccc(Cl)c2)CC1,0.4,4.9%,i
O=C1Nc2ccccc2C12Nc1ccccc1-c1nc3ccccc3n12 (stereo not given),-0.74,-1.0%,i
O=c1cc(N2CCOCC2)[nH]c(=O)n1-c1ccc(Br)cc1,0.24,2.9%,i
COc1ccc(CN2C(=O)CCC2(C)C(=O)NC2CCCC2)c(OC)c1 (stereo not given),-0.64,1.2%,i
Cc1onc(-c2ccccc2)c1C(=O)Nc1nc2c(s1)C(=O)CC(C)(C)C2,·,-2.4%,i
CC(=O)c1ccc(OCC(O)CN2CCN(CC(O)COc3ccc(C(C)=O)cc3)CC2)cc1 (stereo not given),·,2.3%,i
CN1CCc2c(sc3c2c(=O)n(-c2ccccc2)c2nnc(SCc4ccccc4F)n32)C1,0.19,0.3%,i
CCCn1c(NCCO)nc2ccccc21,·,-3.3%,i
O=C(CCCCn1c(=O)[nH]c2ccccc2c1=O)NCCc1c[nH]c2ccccc12,0.44,0.7%,i
CC(=O)OCc1cc2cccc(C)c2[nH]c1=O,0.66,-1.0%,i
CC(C)NC1CS(=O)(=O)CC1O (stereo not given),·,-4.0%,i
O=C(Cn1nc(C(=O)O)c2ccccc2c1=O)NCCC1=CCCCC1,-0.64,-6.2%,i

Remaining list, next part:
SMILES,WNV protease inh,Hsc70 ATP site,MT1-MMP promoter
O=C(CSc1ncn[nH]1)Nc1c(F)cc(F)cc1Br,·,10%,i
CCCCCC(=O)Nc1nnn(CCC)n1,·,-1.4%,i
COc1ccc(-c2cc(C(=O)Nc3cc(C)n(Cc4ccc(Cl)cc4)n3)no2)cc1OC,1,-5.4%,i
COc1ccc(C(=O)N2CCC(C(=O)Nc3ccccc3OC)CC2)cc1,-0.65,4.1%,i
CCOC(=O)c1[nH]c(C)c(C(=O)NCC2CCCO2)c1C (stereo not given),-0.5,4.7%,i
CCCn1c(=O)c2ccccc2n2c(SCCOc3ccc(C)cc3)nnc12,0.15,0.0%,i
O=C1c2cccc3cccc(c23)C(=O)N1c1nncs1,-1.3,0.1%,i
CCC(CC)n1[nH]c(=O)c2c(C)cc(C)nc21,-0.12,1.1%,i
CCC1CCCCN1S(=O)(=O)c1ccc(C(=O)Nc2nnc(-c3cccs3)o2)cc1 (stereo not given),-0.43,1.8%,i
CCOc1ccc(OCc2cccc(C(=O)N3CCOCC3)c2)cc1,-0.12,-6.2%,+
COC(=O)C1=C(C)N(c2ccc(S(N)(=O)=O)cc2)C(=O)C1,·,-0.6%,i
COc1ccc(-c2nnn(Cc3ccccc3F)n2)cc1,·,-1.6%,i

Five entries from above, ordered by length of the SMILES, ascending.
SMILES,WNV protease inh,Hsc70 ATP site,MT1-MMP promoter
Cc1c(C(=O)OC2CCCCC2)sc2nc[nH]c(=O)c12,-1.3,3.3%,i
O=C(O)CCC(=O)N1CCC(C(=O)c2cccc(Cl)c2)CC1,0.4,4.9%,i
Cc1cc(Cl)c(S(=O)(=O)Nc2ccccn2)cc1OCC(N)=O,1.8,-2.0%,i
Cc1ccc2c(c1)N(CC(=O)NCCc1c[nH]c3ccccc13)C(=O)CO2,0.76,0.2%,i
COc1ccc(OC)c(S(=O)(=O)N2CCC(C(=O)NCCc3ccccc3)CC2)c1,·,0.2%,i

Other compounds:
SMILES,WNV protease inh,Hsc70 ATP site,MT1-MMP promoter
Cc1ccnc(N2CCCC(C(=O)NCc3cccs3)C2)n1 (stereo not given),·,5.3%,i
COc1ccc(S(=O)(=O)N2CCC(C(=O)NCCc3ccccc3)CC2)cc1OC,·,6.4%,i
Cc1sc2nc(SCC(=O)OC(C)C)n(C)c(=O)c2c1C,1.3,-7.0%,i
O=C(OCCN1C(=O)c2ccccc2C1=O)c1cnccn1,-0.98,-5.6%,i
CCn1nnnc1SCC(=O)Nc1ccc2c(c1)OCCO2,·,4.6%,i
Cc1cccc(NC(=O)CSc2nnc([C@@H]3CCCN3C(=O)OC(C)(C)C)o2)c1C,-1.3,1.6%,i
CCOC(=O)N1CCN(C(=O)c2ccc(CN(c3ccc(C)c(C)c3)S(C)(=O)=O)cc2)CC1,0.04,-0.5%,i
C=Cn1c(C(=O)O)cc(CC)c1-c1ccccc1,0.25,-0.8%,i
CSc1nc2ccccc2n1CC(=O)N1CCCCC1,-0.23,-3.9%,i
CC(=O)N(C)c1nnc(-c2cnccn2)s1,·,-2.0%,i
COc1cc(Cl)c(S(=O)(=O)NCCN2CCOCC2)cc1Cl,·,0.7%,i
CC(=O)Nc1nonc1NC(=O)CSc1nc2ccccc2o1,-0.39,0.8%,i

(listing goes on)
SMILES,WNV protease inh,Hsc70 ATP site,MT1-MMP promoter
O=C(c1cc2sccc2n1Cc1ccccc1)N1CCN(c2nc3ccccc3s2)CC1,·,0.8%,i
CCOC(=O)c1oc2cc(OCC(N)=O)ccc2c(=O)c1-c1ccc(OC)c(OC)c1,-1.1,-1.3%,i
O=C(NCCc1ccc(Cl)cc1)C1CCN(S(=O)(=O)N2CCC3(CC2)OCCO3)CC1,2.1,-0.3%,i
CCCCN(CCCC)C1=Nc2ccccc2N/C1=C(/C#N)C(=O)OCC,·,-113%,i
COc1ccccc1CCNS(=O)(=O)c1c(C)n(C)c(=O)n(C)c1=O,-0.49,1.6%,i
